# Source: PubChem (National Center for Advancing Translational Sciences (NCATS))
# StopGo reporter: lowers the luciferase signal of an FMDV 2A StopGo reporter | human cells with a luciferase reporter of 2A StopGo recoding; control for the full effect not named in the record | Potency, µM (highest dose often 57.9 µM), for the others: at the highest dose signal change, negative = less light | 1.2% of 410,000 active; active = well fitted falling curve with a large enough effect; inconclusive = small, poorly fitted or top-dose-only effect; inactive = no such curve, though single readings can be large or run the other way; tested in HEK293T cells; note: nearly all actives have a fitted effect of over 45% in size; luciferase light after 4 h
# RE007 growth inh: less growth of the S. pombe RE007 Vpr strain. S. pombe RE007 Vpr strain, BacTiter-Glo ATP luminescence, 24 h; control for the full effect not named in the record. Potency, µM (highest dose often 92.2 µM), inactives show at the highest dose activity change, negative = less growth. 0.21% of 360,000 active. AID 651644; active = well fitted falling curve with a large enough effect; inconclusive = small, poorly fitted or top-dose-only effect; inactive = no such curve, though single readings can be large or run the other way;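 note: nearly all actives have a fitted effect of over 50% in size; the assay follows cell death caused by Vpr and the record does not say whether a fall means rescue or toxicity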
#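 Fission yeast RE007 carrying one integrated HIV-1 vpr copy, seeded at OD 0.01 in PMG+AL medium with 23 nL pinned compound. Grown 24 h at 30 degrees; viability read by BacTiter-Glo luminescence after 5 min.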
# The depositor's hits bear a star; ? = inconclusive; [ ] = another dose, or the depositor's remark. % is set by controls: 0 for no effect and ±100 for the full control effect; potency is the fitted concentration of half-maximal effect. Some of the compounds tested; the hit share may differ from the screen's.
SMILES,StopGo reporter,RE007 growth inh
COC(=O)c1nc(-c2ccc(C)cc2)[nH]c1C(C)(C)C,-12%,0%
Cc1ccc(S(=O)(=O)NC(=O)C2(C)CCN2C(=O)c2cccc(F)c2)nc1 (stereo not drawn),-5%,15%[18.4 µM]
CC(C)(C)Cc1c(-c2ccc(Cl)cc2)nc2ccc(Cl)cn12,-27%,8%
CN(Cc1cnn(-c2ccc(F)cc2)c1)C(=O)[C@H]1O[C@@H](n2ccc(=O)[nH]c2=O)[C@H](O)[C@@H]1O,-23%,8%
O=C(NCc1ccccc1)C(c1ccc(-c2ccccc2)cc1)n1c(=O)c(-c2cc3ccccc3[nH]2)nc2ccccc21 (stereo not drawn),4%,4%
CC(C)(C)S(=O)N1Cc2cc(CO)ccc2[C@H]1CCO (stereo partly drawn),0%,17%
NC(Cc1ccc(C(F)(F)F)cc1)c1csc(Nc2cc(NCc3ccco3)ncn2)n1 (stereo not drawn),-20%,4%
COc1cccc(CN(C)C[C@@H]2OCc3cnnn3CCCC(=O)N([C@H](C)CO)C[C@H]2C)c1,-22%,0%
O=C(NCC(c1cccs1)N1CCOCC1)c1cccc(S(=O)(=O)Nc2ccc(F)cc2)c1 (stereo not drawn),50%[activator],1%
CC1(c2nnc(-c3cccc(Cl)c3)o2)CC(c2ccc(C#N)cc2)=NO1 (stereo not drawn),-19%,-11%
O=C(Nc1cc(Br)ccc1F)c1nc[nH]c1C(=O)NCc1ccccc1,-19%,-4%
COc1cccc(C(NC(C)=O)c2nc(-c3cnn(C)c3)cs2)c1 (stereo not drawn),?,10%
C[C@@H]1CN([C@@H](C)CO)C(=O)CCCn2nncc2CO[C@H]1CN(C)S(=O)(=O)c1cccs1,5%,-21%
CN(c1ccccc1)S(=O)(=O)c1cccc(C(=O)NCCc2c[nH]c3ccccc23)c1,?,7%
CC(C)c1cc(C(=O)NC2CCCCCC2)c2ccccc2n1,-14%,-3%
CCOc1ccc(NS(=O)(=O)c2ccc(C(=O)N3CCC3)cc2)cc1,-10%,1%
CN(CC(=O)Nc1ccccc1C(F)(F)F)C(=O)CSc1nnc(-c2ccncc2)n1C,4%,0%
CCCCn1nnnc1C1(C)CCC(=O)N1Cc1cccs1 (stereo not drawn),0%,5%
CCCOc1ccc(F)cc1-c1cc(C(=O)NCc2ccccc2)[nH]n1,-6%,2%
Oc1ccc(F)c(CN2CCN(c3ncc(Cc4ccccc4)cn3)CC2)c1,?,-16%
Cc1ccccc1-c1cnc(C(O)c2ccc(F)cc2)[nH]1 (stereo not drawn),81%[activator],-8%
CCc1ccc([C@@H]2CC(=O)[C@@H]3CN(S(=O)(=O)c4ccccc4C)[C@H](c4ccc(Cl)cc4)C[C@@H]3N2S(=O)(=O)c2ccc(C)cc2)cc1,?,7%
COC(=O)C1=CN(c2cccc(OCc3ccccc3)c2)C(N)=C(C#N)C1c1cccc(OC)c1OC (stereo not drawn),-19%,3%
O=C(Nc1cccn2nc(COCCO)nc12)C(c1ccccc1)c1ccccc1,-15%,-2%
O=C(/C=C/c1cccc(Cl)c1)OCC(=O)c1ccc[nH]1,-11%,4%

# Going on with the list.
SMILES,StopGo reporter,RE007 growth inh
Cc1ccc(S(=O)(=O)N2[C@H](CC(=O)c3ccccc3)OC[C@@H]2C)cc1,-21%,-6%
O=C(Nc1ccc2c(c1)OCO2)C1Cc2c(-c3ccccc3Oc3ccccc3)ccnc2O1 (stereo not drawn),?,14%
CCCCN(C(C)=O)c1c(CC)nc2ccc(C(=O)NCCc3ccccn3)cn12,8%,-15%
CCOC(=O)C1=NOC2(C1)C(=O)Nc1ccc(OC)cc12 (stereo not drawn),-23%,-5%
CCOC(=O)C1Nc2ccc(C(F)(F)F)cc2C2C=CCC12 (stereo not drawn),0%,5%
Cc1ccc(C)c(S(=O)(=O)Nc2ccc(C(=O)N3CCOCC3)cc2)c1,0%,12%
CCC(=O)N1CCCC(C)(C(=O)NS(=O)(=O)c2cccs2)C1 (stereo not drawn),-7%,10%
O=C(c1cc(-c2ccccc2)on1)N(Cc1cccnc1)C(c1ccccn1)c1nc2ccccc2[nH]1 (stereo not drawn),49%[activator],5%
O=C(NC1CCCC1)C(c1ccccc1)n1c(-c2cccc3ccccc23)nc2ccccc21 (stereo not drawn),-6%,-2%
NC(c1csc(Nc2ccccn2)n1)C1CCCCC1 (stereo not drawn),-20%,-16%
COc1ccc2c(c1)c(CCNNC(=O)C(C)(C)C)c(C)n2C(=O)c1ccc(Cl)cc1,-16%,13%
O=S(=O)(c1ccc(Cl)cc1)N1CCN(c2nc(C(F)(F)F)nc3ccccc23)CC1,-10%,12%
N#CC(=Cc1cccs1)c1nc(-c2ccc(Cl)cc2)cs1,33%[activator],-15%
CCCS(=O)(=O)NC(=O)C1(C)CCN(C(=O)c2cc(C(C)(C)C)nn2C)C1 (stereo not drawn),-10%,3%
O=C1Nc2ccccc2Oc2ccccc21,-4%,-19%
CCC(C)[C@H]1CN=C(N)N1CC1CCCCC1 (stereo partly drawn),-19%,0%
C[C@@H]1CN([C@H](C)CO)C(=O)CCCn2cc(nn2)CO[C@H]1CN(C)C(=O)C1CC1,?,-2%
O=C(OCc1ccccc1)N1CCC2CC1c1cc(N3CCNCC3)ccc12 (stereo not drawn),-7%,14%
CCOC(=O)C1C(=O)CC(=O)C(C(=O)OCC)C1c1ccc(O)cc1 (stereo not drawn),-17%,2%
CC(C)Oc1ccc2ccccc2c1CNC[C@H]1O[C@@H](n2cnc(C(N)=O)n2)[C@H](O)[C@@H]1O,-6%,6%
C[C@H]1CN([C@@H](C)CO)C(=O)CCCn2nncc2CO[C@H]1CN(C)S(=O)(=O)c1ccc(C#N)cc1,-25%,3%
COCCNC(=O)c1sc(=O)n(Cc2ccc(SC)cc2)c1C,-15%,4%[18.4 µM]
C[C@@H]1ON(C)[C@H]2C[C@H]3c4[nH]c5ccc(-c6ccc7c(c6)OCO7)cc5c4CCN3C(=O)[C@@H]12,?,-1%
CC(C)(C)n1nnnc1C(c1cc2ccccc2o1)N1CCC2(CC1)C(=O)NCN2c1ccccc1 (stereo not drawn),-2%,5%
NC(=O)c1c(N)[nH]c(C(=O)c2ccccc2)c1-c1ccncc1,-24%,14%

# A different layout for some results above.
structure | StopGo reporter | RE007 growth inh
O=C(OCc1ccccc1)N1CCC2CC1c1cc(N3CCNCC3)ccc12 (stereo not drawn) | -7% | 14%
CCOC(=O)C1C(=O)CC(=O)C(C(=O)OCC)C1c1ccc(O)cc1 (stereo not drawn) | -17% | 2%

# More entries follow:
SMILES,StopGo reporter,RE007 growth inh
C[C@@H]1CCCCO[C@H](CN(C)S(=O)(=O)c2cn(C)cn2)[C@@H](C)CN([C@H](C)CO)C(=O)c2cc(NC(=O)c3ccncc3)ccc2O1,0%,-23%
Cn1nc(C(C)(C)C)cc1C(=O)N1CCCCC1c1cc(C(=O)Nc2ccccc2Cl)no1 (stereo not drawn),?,8%
C[C@H]1CN([C@@H](C)CO)C(=O)CCCn2nncc2CO[C@@H]1CN(C)Cc1cccc(O)c1,-15%,-1%
Cc1ccc(C=C(C#N)C(=O)c2ccccc2)cc1,7%,2%[18.4 µM]
COc1ccc(Sc2ccc(NC(=O)c3cccc(Cl)c3)cc2C#N)cc1,-29%,-16%
CCOC(=O)C1(C)CCCCCN1C(=O)c1ccc(Cl)nc1 (stereo not drawn),0%,4%
NC(COCc1ccccc1)c1csc(Nc2ccc(C(=O)NCCO)cc2)n1 (stereo not drawn),-5%,2%[18.4 µM]
CCCCNC(=O)c1nc(C2CCNCC2)oc1-c1ccccc1,-9%,-11%
COc1ccc(OC(=O)N(C)C[C@@H]2OCc3cn(nn3)CCCC(=O)N([C@H](C)CO)C[C@H]2C)cc1,-4%,3%
CC1=C(C(=O)N2CCCCCC2)CC(CC(=O)NC2CCCC2)C(=O)N1Cc1ccc(C(C)(C)C)cc1 (stereo not drawn),-8%,-7%
O=S1(=O)N[C@@H](Cc2ccccc2)COc2cccc(N3CCC[C@@H]3CO)c21,-10%,6%
Cc1ccccc1-c1cnc2c(c1)C(=O)N([C@H](C)CO)C[C@@H](C)[C@H](CN(C)C(=O)c1ccncc1)O2,-23%,-30%
CC1(C(=O)NS(=O)(=O)c2cccc(Cl)c2)CCN1C(=O)CCc1ccccc1 (stereo not drawn),0%,22%
O=C(CC1SC(N2CCCC2)=NC1=O)Nc1ccc(C(=O)NCc2ccccc2F)cc1 (stereo not drawn),9%,-3%
CC(=O)Nc1cccc(-c2ccnc3c2CC(C(=O)Nc2ccc(F)c(Cl)c2)O3)c1 (stereo not drawn),?,6%
O=C(c1cccc(S(=O)(=O)N2CCN(c3ccc(F)cc3)CC2)c1)N1CCN(c2ccccc2O)CC1,-16%,-3%
O=S1(=O)CC(N2CCSCC2)CN1Cc1cn(Cc2ccc(F)cc2)nn1 (stereo not drawn),-19%,3%
Cc1ccc(S(=O)(=O)N2C[C@H]3[C@H]4C(=O)N(Cc5ccccc5)C(=O)[C@H]4CC(=O)[C@H]3[C@@H]2c2ccccc2)cc1,-13%,5%
CC(=O)Nc1ccc(NC(=O)C2(C)Cc3c(-c4cccc(C(N)=O)c4)ccnc3O2)cc1 (stereo not drawn),-8%,-2%[18.4 µM]
Cc1nc2ccc(C(=O)N3CCC(O)(Cc4ccccc4)CC3)cn2c1N(C)C(=O)CCc1ccccc1,-9%,3%[18.4 µM]
O=C(Nc1c(-c2ccccc2)[nH][nH]c1=O)c1ccc2ccccc2c1,-5%,2%
O=C(NCc1cccnc1)[C@@H]1CC=C[C@@H]2CCN(Cc3ccccc3)C(=O)[C@@H]21,-20%,-11%
O=[N+]([O-])c1ccc(COc2cccc(CN3CCCC3)c2)cc1,-4%,-19%
CCN(C(=O)COC(=O)c1ncc(Cl)c(Cl)c1Cl)c1c(N)n(Cc2ccccc2)c(=O)[nH]c1=O,-2%,1%
COC(=O)[C@@]12C[C@@H](CC(=O)N3CCOCC3)C(=O)N(Cc3ccccc3)C1=CCC(C)(C)C2,-13%,0%

# (next part)
SMILES,StopGo reporter,RE007 growth inh
O=C(Cc1ccc(NC(=O)C2CCCN(C(=O)C3CCC3)C2)cc1)Nc1ccc(C(=O)N2CCOCC2)cc1 (stereo not drawn),0%,5%
O=C(NC1CCCC1)C1c2ccccc2OCC(=O)N1Cc1ccc2c(c1)OCO2 (stereo not drawn),11%,-10%
COc1cccc(C(=O)N2CCCc3ccccc32)c1OC,-8%,-7%
CC(=O)NC(c1cccc(F)c1)c1nc(-c2ccc3ccccc3c2)cs1 (stereo not drawn),-3%,-2%[18.4 µM]
COc1ccc(C#CC2=CC(=O)CC(C)(C)C2)cc1,22%,1%
CC1(C(=O)NCc2ccccc2)CCC(=O)N1CC(F)(F)F (stereo not drawn),-6%,0%
CCCCN(C)c1c(C)nc2ccc(C(=O)NCc3cccs3)cn12,-7%,-4%[18.4 µM]
COc1ccc(NC(=O)CCC(=O)N2CCC(c3ccccc3)=N2)cc1S(=O)(=O)N1CCCCC1,11%,14%
COc1cccc(C(=O)c2ccccc2NC(C)=O)c1,19%,20%
O=C(COC(=O)c1ccccc1SCC(=O)N1CCCC1)NCc1ccc(F)cc1,0%,-7%
C[C@H](CO)N1C[C@H](C)[C@H](CN(C)S(=O)(=O)c2cccc(F)c2)Oc2cc(Br)ccc2S1(=O)=O,0%,-6%
CCc1nc2ccc(C(=O)N3CCN(C)CC3)cn2c1N(CCC(C)C)CCN(C)C,-11%,4%
CCN1C(=O)N2C[C@H]3CON(C)[C@H]3C[C@H]2c2ccccc21,-18%,-1%
O=C1Nc2ccccc2C(=O)N2c3ccccc3NC(=O)C12 (stereo not drawn),-14%,8%

# Some of these compounds in order of heavy-atom count, descending:
SMILES,StopGo reporter,RE007 growth inh
CCc1ccc([C@@H]2CC(=O)[C@@H]3CN(S(=O)(=O)c4ccccc4C)[C@H](c4ccc(Cl)cc4)C[C@@H]3N2S(=O)(=O)c2ccc(C)cc2)cc1,?,7%
O=C(Cc1ccc(NC(=O)C2CCCN(C(=O)C3CCC3)C2)cc1)Nc1ccc(C(=O)N2CCOCC2)cc1 (stereo not drawn),0%,5%
Cc1ccc(S(=O)(=O)N2C[C@H]3[C@H]4C(=O)N(Cc5ccccc5)C(=O)[C@H]4CC(=O)[C@H]3[C@@H]2c2ccccc2)cc1,-13%,5%
O=C(Nc1ccc2c(c1)OCO2)C1Cc2c(-c3ccccc3Oc3ccccc3)ccnc2O1 (stereo not drawn),?,14%
COC(=O)[C@@]12C[C@@H](CC(=O)N3CCOCC3)C(=O)N(Cc3ccccc3)C1=CCC(C)(C)C2,-13%,0%
O=C(Nc1cccn2nc(COCCO)nc12)C(c1ccccc1)c1ccccc1,-15%,-2%
C[C@@H]1CN([C@H](C)CO)C(=O)CCCn2cc(nn2)CO[C@H]1CN(C)C(=O)C1CC1,?,-2%
Oc1ccc(F)c(CN2CCN(c3ncc(Cc4ccccc4)cn3)CC2)c1,?,-16%
CC1(c2nnc(-c3cccc(Cl)c3)o2)CC(c2ccc(C#N)cc2)=NO1 (stereo not drawn),-19%,-11%
CCCCNC(=O)c1nc(C2CCNCC2)oc1-c1ccccc1,-9%,-11%
O=[N+]([O-])c1ccc(COc2cccc(CN3CCCC3)c2)cc1,-4%,-19%
CCOC(=O)C1=NOC2(C1)C(=O)Nc1ccc(OC)cc12 (stereo not drawn),-23%,-5%
COC(=O)c1nc(-c2ccc(C)cc2)[nH]c1C(C)(C)C,-12%,0%
